RanGTP-Imp inh – inhibitors of RanGTP-importin-beta interaction, primary screen, biochemical, FRET, CFP-Ran, YFP-importin-beta, homogeneous; AID 2216; inhibition, % (concentration not given with the values); 300,000 compounds, 1.1% hits; cell-free CFP-Ran/YFP-importin-beta FRET ratio;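 active = most replicates above 15%; inconclusive = exactly half above 15%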;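 also: 0% = DMSO wells and 100% = Ran loaded with GDP instead of GTP; wells of about 40 µL received 100 nL stock; the first replicate is given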
B2AR ag – agonists of human beta-2 adrenergic receptor inducing internalization | Am2.2-beta2AR cells, FAP receptor internalization, flow cytometry; reference of the scale not given here | response, % (no concentration beside the values) | 340,000 compounds, 0.43% hits | AID 504454;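 active = response above a set limit, near 3 SD of response in nonfluorescent compounds, cut at about 42% in these data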;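 also: stock transfer was 100 nL into about 11 µL; a reference agonist was the positive control; negative values mostly stem from fluorescent compounds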
Target sequence (P07550 whole entry, looked up): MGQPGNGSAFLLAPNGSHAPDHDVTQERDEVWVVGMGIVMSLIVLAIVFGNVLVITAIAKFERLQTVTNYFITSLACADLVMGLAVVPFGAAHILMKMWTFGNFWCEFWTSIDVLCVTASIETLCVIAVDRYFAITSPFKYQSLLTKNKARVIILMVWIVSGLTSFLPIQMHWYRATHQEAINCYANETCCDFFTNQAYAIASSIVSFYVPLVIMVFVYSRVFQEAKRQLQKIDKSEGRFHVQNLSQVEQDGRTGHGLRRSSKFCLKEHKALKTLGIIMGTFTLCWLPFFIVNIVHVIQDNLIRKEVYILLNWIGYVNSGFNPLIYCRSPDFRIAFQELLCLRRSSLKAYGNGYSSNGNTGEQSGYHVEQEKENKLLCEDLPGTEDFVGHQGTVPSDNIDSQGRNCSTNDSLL
Vif A3G – HIV-1 Vif–A3G interaction blockers – biochemical, TR-FRET, GST-Vif 1-94, biotin-A3G peptide, dose response retest, primary screen (AID 1117319). TR-FRET GST-Vif / biotin-A3G peptide binding; higher % means a stronger effect; test concentration not given here; strong numbers were not always called active. inhibition, %, or IC50 in µM where a hit was titrated. 260,000 compounds, 0.57% hits;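 active = above the screen mean plus three standard deviations and confirmed in dose response; inconclusive = results disagree or hit not tested in dose response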;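 also: Vif residues 1-94 fused to GST binding biotinylated APOBEC3G peptide 110-148; 0% = full assay without inhibitor and 100% = GST in place of GST-Vif; retest series ran down from 100 µM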
HNF4A DNA FP – change in binding of human HNF4 alpha to DNA | P41235 | HNF4a-FITC DNA binding, fluorescence polarization, 1 h | activity change, % at 10 µM | 360,000 compounds, 0.3% hits | AID 1224865; in the data active = activity change above about 30%, passing the limit was not always enough;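 also: controls were the assay level and a saturating level of protein; the project sought stronger binding though the title names inhibitors; some compounds called inactive have numbers as strong as hits; positive values seem to mean higher polarization but the record does not say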
Target sequence (P41235 whole entry, looked up): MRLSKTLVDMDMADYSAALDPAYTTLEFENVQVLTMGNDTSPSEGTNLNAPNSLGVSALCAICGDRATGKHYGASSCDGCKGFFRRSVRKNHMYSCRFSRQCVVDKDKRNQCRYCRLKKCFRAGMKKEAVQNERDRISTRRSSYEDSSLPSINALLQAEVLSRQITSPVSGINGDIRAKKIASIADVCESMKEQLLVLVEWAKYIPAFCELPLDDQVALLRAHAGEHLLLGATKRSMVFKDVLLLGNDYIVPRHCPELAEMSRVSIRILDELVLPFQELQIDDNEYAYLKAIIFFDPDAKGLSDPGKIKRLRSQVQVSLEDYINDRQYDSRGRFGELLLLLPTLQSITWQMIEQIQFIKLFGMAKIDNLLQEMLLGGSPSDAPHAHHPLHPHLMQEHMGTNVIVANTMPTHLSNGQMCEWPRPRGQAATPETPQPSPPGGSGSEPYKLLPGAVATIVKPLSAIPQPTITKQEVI
Calb FLC – C. albicans growth modulation with fluconazole | 300,000 compounds, 0.57% hits | growth inhibition, % (test concentration not listed) | C. albicans CaCi-2 (fluconazole-resistant clinical isolate) + fluconazole, Alamar Blue growth, 48 h | AID 1979;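 active = most replicates above 75%; inconclusive = exactly half above 75%; inactive = most below 75%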;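 also: all wells also contain fluconazole at 8 µg/ml as a sub-toxic cotreatment; 0% = median of DMSO wells and 100% = median of geldanamycin control wells; wells of about 8 µL received 7.5 nL stock; the first replicate is given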
ALR inh – inhibitors of human sulfhydryl oxidase ALR. 290,000 compounds, 3.8% hits. P55789. inhibition, % (test concentration not listed). purified ALR, DTT oxidation, H2O2 HRP-luminol luminescence;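 active = mean and each replicate at 75% or more; inconclusive = only one of the two met; inactive = neither met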;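 also: stock transfer was 7.5 nL into about 7.5 µL; 0% = neutral wells and 100% = wells with inactivated enzyme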
Target sequence (P55789 whole entry, looked up): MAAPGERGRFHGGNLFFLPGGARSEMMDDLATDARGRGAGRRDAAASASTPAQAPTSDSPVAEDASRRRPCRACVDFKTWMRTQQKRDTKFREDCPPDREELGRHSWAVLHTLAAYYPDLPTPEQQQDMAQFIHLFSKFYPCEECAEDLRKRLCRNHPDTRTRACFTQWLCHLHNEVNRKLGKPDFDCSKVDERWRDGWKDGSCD
LANA-H2B inh – blocks KSHV LANA binding to histone H2A/H2B. cell-free LANA-H2A/H2B peptide, fluorescence polarization. Q9QR71. AID 2629. 320,000 compounds, 0.6% hits. inhibition, % (test concentration not listed); in the data active = inhibition mostly above about 10%, no sharp cut-off; inactive = mostly below about 6.7%;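 also: stock transfer was 7.5 nL into about 10 µL; 0% = median of vehicle wells and 100% = median of positive control wells; one replicate is shown; the record names a cut of 25% in any replicate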
An asterisk follows results filed as active; ? = inconclusive; . = not tested or not shown.

SMILES	RanGTP-Imp inh	B2AR ag	Vif A3G	HNF4A DNA FP	Calb FLC	ALR inh	LANA-H2B inh
COc1ccc(CNC(=O)C(c2ccco2)N(C(=O)c2snc(C(N)=O)c2N)c2ccccc2OC)cc1 (stereo not given)	-0.3	3	.	-2.4	-3	-5	-5.9
Cn1cnc(C(=O)N2CCc3ccccc3C2)c1C(=O)N1CCc2ccccc2C1	.	-1	.	3.0	.	-8	-4.5
COc1ccc(C(=O)NNC(=O)c2cccc(S(=O)(=O)N3CCOCC3)c2)cc1	.	-1	4%	-2.2	.	-1	4.2
CCNC(=O)NC(=O)C(C)OC(=O)c1cccnc1SC (stereo not given)	2.8	-1	.	1.8	-2	7	-1.4
CC1=C(C(=O)Nc2ccc(C)cc2C)C(c2ccc(C)o2)NC(=O)N1 (stereo not given)	-3.3	-1	0%	3.2	-4	0	-0.6
CC1CCc2nc(/C(C#N)=C/c3cccnc3)sc2C1 (stereo not given)	0.5	-10	14%	4.4	-4	97*	-0.9
CC1CCCCN1C(=O)c1cc2ccccc2cc1O (stereo not given)	-5.4	3	.	-4.1	14	15	-4.8
CCOC(=O)c1c(C)[nH]c(C(=O)OCc2ccc(C)cc2)c1C	-0.3	3	-6%	4.0	0	-6	1.4
CCCCC(=O)Nc1ccc(C2C(=O)c3ccccc3C2=O)cc1	-4.7	-4	.	1.5	-2	35	-6.9
O=C(COC(=O)c1cccc(S(=O)(=O)N2CCCCC2)c1)NCc1ccccc1	.	5	-1%	2.1	.	.	.
Cc1ccc(C2OCC(C)([N+](=O)[O-])CO2)cc1 (stereo not given)	.	-2	2%	-1.4	.	.	.
CN(C(=O)COC(=O)c1n[nH]c(=O)c2ccccc12)c1ccccc1	.	1	-11%	-1.1	.	-8	4.3
Cc1c(NC(=O)C(C)Oc2cccc(F)c2)c(=O)n(-c2ccccc2)n1C (stereo not given)	.	-13	.	1.9	.	.	-14
CCOc1ccccc1/C=N/n1c(C2CCCCC2)n[nH]c1=S	2.3	-11	-5%	5.8	-5	-3	-4.1
COc1ccc(NC(=O)CN2C(=O)NC3(CCCC3)C2=O)cc1Cl	-2.0	7	-2%	-2.6	-1	.	6.7
Cc1cccc(C2=N/C(=C/c3cccs3)C(=O)O2)c1	4.0	0	-1%	0.0	-1	-2	-8.1
Cc1cccc(OCCCC(=O)Nc2nnc(C3CCCO3)s2)c1C (stereo not given)	-3.3	12	.	1.8	11	-4	2.7
CCOC(=O)C1CCN(C(=O)c2ccc(Cl)c(Cl)c2)CC1	.	3	7%	0.6	.	0	2.3
CCCCC(=O)c1c(O)c2ccccc2oc1=O	3.8	4	?	-1.0	6	5	6.1
Cc1c(CCO)c(=O)[nH]n1S(=O)(=O)c1ccc(F)cc1	-3.3	-2	-1%	1.9	12	0	14*
C=CCC1NS(=O)(=O)OC2CCCC12 (stereo not given)	2.2	5	.	4.1	2	9	4.6
CC1(C)CC(=O)C(C=NCCc2ccccn2)=C(O)C1	5.0	4	30%	0.2	0	1	2.8
Cc1ccc(C(=O)N(CC(=O)NC2CCCC2)c2ccccc2C)s1	-0.1	-1	-4%	-2.2	2	4	3.6
CCC(C)C(NS(=O)(=O)c1ccc(C)cc1)C(=O)Oc1ccc2c3c(c(=O)oc2c1)CCC3 (stereo not given)	-2.1	-6	9%	-0.6	-10	-6	1.5
Clc1ccc(C2=NN(c3ccccc3)C(c3ccco3)C2)cc1 (stereo not given)	8.4	6	.	-2.2	-12	52	-2.2

New compounds follow.
SMILES	RanGTP-Imp inh	B2AR ag	Vif A3G	HNF4A DNA FP	Calb FLC	ALR inh	LANA-H2B inh
CCOC(=O)C1CCCN(C(=O)c2cc3cc(F)ccc3[nH]2)C1 (stereo not given)	0.9	2	-4%	-3.7	18	-6	2.8
CSc1n[nH]c(NC(C)=O)n1	-1.3	1	1%	1.7	2	-5	3.4
COCCN(Cc1ccccc1)C(=O)c1cc(-c2ccc(OC)c(OC)c2)nc2ccccc12	0.8	21	3%	0.8	17	-13	-6.8
Cc1ccc(/C=C2/NC(=O)N(Cc3ccccc3)C2=O)s1	4.7	-15	3%	55*	-28	-4	-1.7
CC1CCCN(c2nc3c(c(=O)n(C)c(=O)n3C)n2CCSc2nc3ccccc3o2)C1 (stereo not given)	1.4	-5	0%	2.1	23	-4	-2.4
CN(Cc1ccccc1)S(=O)(=O)c1cccs1	-2.6	16	0%	1.9	-6	-2	6.0
CCCCn1c(N)c(N(CC(C)C)C(=O)c2ccc(S(=O)(=O)N3CCCCC3)cc2)c(=O)[nH]c1=O	4.1	-8	-4%	-0.7	-1	-1	3.1
O=c1cc(CO)oc(C(Nc2ccccn2)c2cccc(F)c2)c1O (stereo not given)	1.6	6	?	-0.4	-19	98*	1.7
Cc1c(C(=O)N2CCCCCC2)c(S(=O)(=O)Nc2ccccc2F)c(C)n1C	-3.0	-1	.	2.8	-2	2	-0.3
CCC(/C=N/NC(=O)C(=O)N/N=C/C(CC)CC)CC	-0.2	2	7%	-3.4	-2	1	6.0
N#Cc1c(N2CCCC2)ccc(Br)c1Cl	-2.6	8	.	-0.5	-4	-10	4.3
CC(N=C1NS(=O)(=O)c2ccccc21)C(=O)NCc1ccncc1 (stereo not given)	.	-3	-10%	-1.6	.	.	.
Cn1ncc(Cl)c1C(=O)N/N=C/c1cc2c(cc1[N+](=O)[O-])OCO2	2.6	11	11%	2.3	-6	-4	0.8
O=C(OCC(=O)N1CCCC1)c1c[nH]c2ccccc12	.	5	.	-1.1	.	.	1.2
CS(=O)(=O)N1Cc2ccccc2CC1C(=O)O (stereo not given)	.	5	30%	-8.6	-18	-2	0.9
O=C(N/N=C/c1ccccc1)NC1CCCCC1	1.2	2	.	-1.6	-11	-4	0.6
O=C(Nc1ccc2c(c1)CCCN2C(=O)c1cccs1)c1cccc(F)c1	1.9	12	.	1.8	22	.	-8.5
O=C(O)c1ccc(CN2C(=O)c3ccc(Oc4ccc([N+](=O)[O-])cc4)cc3C2=O)cc1	6.7	-4	0%	-0.2	-1	.	4.5
CCOC(=O)N1CCN(C2=NC3(CCCCC3)C(C#N)C(=O)N2)CC1 (stereo not given)	-2.5	1	0%	5.0	-9	3	-0.3
CCOc1ccc(/C=N/NC(=O)c2csc(C)c2C)c(OCC)c1	-4.2	15	.	-1.0	-5	-2	-8.9
Cc1ccc(S(=O)(=O)c2c(C)cc(C)[nH]c2=O)cc1	6.1	-2	-10%	0.8	1	-3	0.9
COC(=O)CCC(=O)c1ccc(OC)c(Cl)c1	0.7	.	.	.	1	-3	3.1
Clc1cccc(CSc2nnc(-c3cccnc3)n2Cc2ccco2)c1	-4.2	-13	8%	1.5	25	3	1.6
CN1C(=O)C(CC(=O)NC2CCCCC2)N(C)C1=O (stereo not given)	-3.9	-3	.	5.7	11	-27	0.9
N#CCCn1cc(C(CC(=O)c2ccccc2)C(=O)O)c2ccccc21 (stereo not given)	2.0	-2	.	-0.1	8	-13	-0.8

(listing goes on)
SMILES	RanGTP-Imp inh	B2AR ag	Vif A3G	HNF4A DNA FP	Calb FLC	ALR inh	LANA-H2B inh
CCOC(=O)C1C(c2ccc(OC)c(OC)c2)c2c([nH][nH]c2=O)CC1(C)O (stereo not given)	0.6	4	1%	-6.2	-1	-5	5.5
CCOC(=O)C1C(C(=O)OC)=C(c2ccc(F)cc2)c2ccccc2N1S(=O)(=O)C(F)(F)F (stereo not given)	.	-4	1%	-0.2	.	.	.
COc1ccc(-c2cc3nc(C4CCN(C(=O)OC(C)(C)C)CC4)c(C(=O)O)cn3n2)cc1	-2.3	5	22%	1.4	14	5	-4.9
Nc1ccc(-n2cc(-c3ccccc3)[nH]c2=S)cc1	0.8	-15	-1%	-4.2	-6	91*	2.6
C#CCNC(=O)C1CCN(c2ccc(S(=O)(=O)N3CCOCC3)cc2Cl)CC1	-2.2	5	21%	2.0	4	0	3.7
COc1ccc(C(=O)CCC(=O)Nc2cccnc2)c(OC)c1	4.6	-15	.	7.5	6	21	-2.1
COc1ccc(Cc2nnc(NC(=O)C3CCCO3)s2)cc1 (stereo not given)	3.9	-1	4%	1.0	-3	-3	6.6
CC(=O)OCC(=O)C1(O)CCC2C3CC(C)C4=CC(=O)C=CC4(C)C3=CCC21C (stereo not given)	.	1	-7%	-0.1	.	.	.
O=S(=O)(NCCc1ccncc1)c1ccc(S(=O)(=O)N2CCCCCC2)cc1	-2.8	-4	3%	4.8	-16	1	2.2
O=C(O)c1cccc(-n2c(/C=C/c3cccc([N+](=O)[O-])c3)nc3ccccc3c2=O)c1	6.2	14	-9%	0.9	12	12	-0.8
Cc1c(C(=O)O)sc2[nH]c(=O)n(Cc3ccccc3)c(=O)c12	3.4	8	-5%	-1.9	21	.	2.6
COc1ccc(N(CCC(=O)O)S(=O)(=O)c2ccc(C)c(C)c2)cc1	-0.2	1	20%	3.5	4	-2	-0.2
Cc1noc(C)c1S(=O)(=O)N1CCC(C(=O)Nc2ccc(Br)cc2)CC1	6.3	-4	-1%	8.5	-29	-8	1.5
CCOC(OCC)c1nc(N)[nH]c(=O)c1CCCCc1ccccc1	.	-4	-5%	-0.7	.	.	.
Cc1ccc(NC(=O)c2ccc(COc3ccccc3[N+](=O)[O-])o2)nc1	.	-7	0%	4.1	.	1	.
O=C(c1ccc(-n2cccc2)cc1)N1CCCCC1	-0.4	-3	2%	-2.1	-6	.	.
O=c1c2ccccc2nc(N/N=C/c2ccc(O)cc2)n1O	4.0	-12	-7%	-3.4	-8	66	-1.3
CCOC(=O)CCCCC(=O)c1[nH]c(=O)[nH]c1CN1CCOCC1	0.3	-1	-7%	0.9	-11	.	2.3
Cc1nc(SC(C)C(=O)Nc2c(C)n(C)n(-c3ccccc3)c2=O)nc(C)c1C (stereo not given)	.	-4	-4%	0.6	.	.	-0.1
CCOc1ccc(S(=O)(=O)N2CCN(C(=O)C3CSC4(C)CCC(=O)N34)CC2)cc1 (stereo not given)	.	-3	-7%	-0.8	.	.	-2.7
COc1ccccc1C(=O)Nc1cccc(Oc2c(F)c(F)c(F)c(F)c2F)c1	0.9	0	-4%	-1.0	-1	-7	-1.5
C[C@H](NC(=O)c1nc[nH]c1C(=O)NC1CCNCC1)C(=O)OC(C)(C)C	3.0	1	.	2.2	-11	-7	2.1
CC(CN1CCCCC1)OC(=O)c1ccco1 (stereo not given)	5.5	5	.	5.5	14	-2	-6.4
O=C(c1ccccc1Cl)N1CCC(O)(c2cccnc2)CC1	?	-1	3%	2.2	28	-3	4.5
COc1ccc(NC(=O)Cn2c(=O)sc3ccccc32)c(OC)c1	4.7	-8	5%	0.1	-2	-6	2.5

Continuation:
SMILES	RanGTP-Imp inh	B2AR ag	Vif A3G	HNF4A DNA FP	Calb FLC	ALR inh	LANA-H2B inh
Cc1ccc(S(=O)(=O)N(C)S(=O)(=O)c2ccc(C)cc2)cc1	1.3	-5	.	0.6	-2	-1	4.1
CC1=CC(=O)OC1Cc1ccncc1 (stereo not given)	-0.4	-1	2%	-2.6	-15	-3	0.9
O=C(Oc1ccc(C(=S)N2CCCCC2)cc1)c1ccccc1F	3.8	-6	.	-3.9	-6	-7	-1.2
Cc1ccc(C(=O)N=c2sccn2C)o1	-1.9	-2	.	-2.2	24	-1	1.4
CCN(CC)CCNC(=O)c1cc(-c2ccc(Br)s2)nc2ccccc12	0.9	14	-225%	4.6	.	-21	0.1
CCC/C(O)=N\S(=O)(=O)c1ccc(N=NN(C)C)cc1	0.2	-3	5%	-0.6	-10	-5	-0.1

Compound activity deposited in PubChem BioAssay by several laboratories.

An unsorted share of the library; any-hit rate near 6.3%.
